Source: PubChem BioAssay (Johns Hopkins Ion Channel Center)
KCNQ2 enhance – KCNQ2 (rat) channel potentiation; B-score at 10 µM; AID 2239; CHO-K1 KCNQ2, FluxOR thallium flux fluorescence; stronger effect = higher value; O88943; 310,000 compounds, 0.54% hits;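 active means fluorescence ratio B-score at least 3 SD of library B-scores, with initial fluorescence B-score within 3 SD, cut at about 5.3 in these data; same plate scores as AID 2156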;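 further: B-score of peak minus minimum over baseline fluorescence ratio after K+ and Tl+ stimulus; positive B-score means potentiation of KCNQ2 with more thallium influx and brighter signal; only the inactives scoring about 0 or higher are listed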
Target sequence (O88943 whole entry, looked up): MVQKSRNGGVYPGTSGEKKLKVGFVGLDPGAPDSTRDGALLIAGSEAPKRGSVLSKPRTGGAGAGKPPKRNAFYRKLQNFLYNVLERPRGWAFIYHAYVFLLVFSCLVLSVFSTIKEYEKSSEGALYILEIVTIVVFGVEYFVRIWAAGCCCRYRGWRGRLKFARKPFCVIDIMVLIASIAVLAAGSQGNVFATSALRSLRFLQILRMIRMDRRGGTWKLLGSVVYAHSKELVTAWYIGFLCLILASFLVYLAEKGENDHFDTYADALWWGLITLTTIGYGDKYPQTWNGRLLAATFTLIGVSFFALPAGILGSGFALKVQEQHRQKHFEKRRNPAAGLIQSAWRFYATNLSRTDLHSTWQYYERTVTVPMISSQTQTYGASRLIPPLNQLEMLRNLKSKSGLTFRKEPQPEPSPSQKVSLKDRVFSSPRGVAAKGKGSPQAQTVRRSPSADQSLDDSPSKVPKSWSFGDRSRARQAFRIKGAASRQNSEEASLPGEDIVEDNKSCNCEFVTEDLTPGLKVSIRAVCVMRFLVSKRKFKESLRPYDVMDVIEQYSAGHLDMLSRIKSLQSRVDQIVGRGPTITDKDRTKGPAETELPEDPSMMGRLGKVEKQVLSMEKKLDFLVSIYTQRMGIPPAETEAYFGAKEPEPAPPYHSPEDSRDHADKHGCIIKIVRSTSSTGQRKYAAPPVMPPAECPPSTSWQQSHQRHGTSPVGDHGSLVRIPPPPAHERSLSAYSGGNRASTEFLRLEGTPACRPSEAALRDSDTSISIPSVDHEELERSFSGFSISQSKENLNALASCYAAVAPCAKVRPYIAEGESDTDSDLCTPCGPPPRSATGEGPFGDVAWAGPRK
KCNQ2 enhance baseline – further read-out of KCNQ2 enhance, marked with its call; B-score; compound at 10 µM; measured here: initial fluorescence intensity artifact check;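 brightness before thallium and not channel activity; 0 = typical well and far values either way flag optical interference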
* marks the source's active call; other numbers are inactive results.

structure | KCNQ2 enhance | KCNQ2 enhance baseline
COc1ccc(/C=N/NC(=O)c2ccncc2)c(C(=O)O)c1OC | 0.45 | 1.9
C=CCNC(=S)NCc1cccnc1 | 0.41 | 0.5
COc1ccc(C(=O)Nc2ccc(NC(=O)c3ccco3)c(Cl)c2)cc1OC | 1 | -1.1
COc1ccc(S(=O)(=O)N(CC(=O)NCc2cccnc2)C2CCCCC2)cc1OC | 0.47 | -0.17
O=C1N2CCSC2=NC1(Nc1nccs1)C(F)(F)F (stereo unspecified) | 0.48 | 0.96
COc1cc(NC(=O)c2ccco2)c(OC)cc1NC(=O)Nc1ccccc1Cl | 1.2 | 0.05
COCC1=C(C(=O)OC)C(c2cccs2)n2ncnc2N1 (stereo unspecified) | 0.01 | -0.21
O=C(COc1ccccc1O)N1CCN(C(=O)c2ccco2)CC1 | 0.02 | 0.04
CC(=O)NCCC1CCCCN1Cc1nc(Cc2cccc(C(F)(F)F)c2)no1 (stereo unspecified) | 0.77 | 0
Cc1ccc(C(C(=O)NC(C)(C)C)N(C(=O)c2csnn2)c2ccccc2F)o1 (stereo unspecified) | 0.09 | 0.46
CSCCC(NC(=O)c1ccco1)C(=O)Nc1ccc(C)cn1 (stereo unspecified) | 0.48 | -0.81
O=C(NCC1CCCO1)c1cc2nc(-c3ccco3)cc(C(F)(F)Cl)n2n1 (stereo unspecified) | 0.65 | -0.65
O=C1NC(=Nc2ccccc2)SC1Cc1ccccc1 (stereo unspecified) | 0.15 | -0.36
COc1ccc(-n2c(CN3CCOCC3)nc3ccc([N+](=O)[O-])cc3c2=O)c(OC)c1 | 0.31 | -0.18
O=S(=O)(c1ccc(S(=O)(=O)N2CCN3CCCC3C2)cc1)N1CCCC1 (stereo unspecified) | 0.03 | -0.47
Cc1nn(CC(=O)NCCCc2ccccc2)c(=O)c2cccn12 | 0.34 | -1.7
COc1cc(CCCN2CCNC[C@H]2Cc2ccc(O)cc2)cc(OC)c1OC | 1.4 | -2.1
COC(=O)C(C)Sc1nnc(-c2ccncc2)o1 (stereo unspecified) | 0.79 | 0.21
Cn1c(=O)n(C)c2cc(NS(=O)(=O)c3ccc4c(c3)CCCC4)ccc21 | 0.93 | 0.06
CCNC(=S)N(CCc1ccc(S(N)(=O)=O)cc1)C1CC(=O)N(c2ccccc2)C1=O (stereo unspecified) | 0.92 | -1.1
CC1=C(C(=O)OC(C)C)C(c2cccc(F)c2)n2ncnc2N1 (stereo unspecified) | 1.1 | -0.78
COc1ccc(Br)cc1S(=O)(=O)NCc1ccccn1 | 0.5 | 0.46
CCc1ccc(C(=O)N2CCCN(C)CC2)s1 | 0.01 | 1.2
COc1ccccc1C(=O)NC(=O)COc1cc(Cl)ccc1Cl | 0.7 | 0.75

Structural class: the entries above containing a CF3 group
structure | KCNQ2 enhance | KCNQ2 enhance baseline
O=C1N2CCSC2=NC1(Nc1nccs1)C(F)(F)F (stereo unspecified) | 0.48 | 0.96
CC(=O)NCCC1CCCCN1Cc1nc(Cc2cccc(C(F)(F)F)c2)no1 (stereo unspecified) | 0.77 | 0

(continued)
structure | KCNQ2 enhance | KCNQ2 enhance baseline
Cc1ccc(-c2csc3nc(SCC(N)=O)n(Cc4ccccc4)c(=O)c23)cc1 | 2.9 | 0.01
CCOc1ccc2nc(NC(=O)CSc3nc(SC)ns3)sc2c1 | 0.21 | -0.11
C=CCNC(=O)c1ccccc1SCc1c(C)noc1C | 0.74 | 0.56
Nc1ccc(S(=O)(=O)C(F)(F)F)cc1N | 1.4 | -2.6
CCN1C(=O)[C@@H]2[C@@H](c3ccc(-c4ccc5c(c4)OCO5)c(OC)c3)N3CCCC[C@@]3(C(=O)OC)[C@@H]2C1=O | 0.07 | 1.8
O=C(CCC(=O)N1CCCC(Nc2ccccc2)C1)c1ccc(F)cc1 (stereo unspecified) | 0.07 | -1
CCOC(=O)N1CCN(C(=O)C(=O)c2cn(CC(=O)N3CCCCCC3)c3ccccc23)CC1 | 0.11 | 0
CC(=O)c1sc(N/N=C/c2cccc(O)c2)nc1C | 0.56 | -1.1
CCCN1CCC(=O)N([C@H](CSc2ccc(OC)cc2)c2ccccc2)CC1 | 1.4 | -0.3
O=C(Cn1cccc1)NC1CCCCCC1 | 0.03 | 1.1
CC1(C)CCCC2=C1CC1C(=O)N(Cc3cccnc3)C(=O)C1C2 (stereo unspecified) | 0.65 | 0.01
CC(C)(C)c1ccc(OCC(=O)Nc2ccncc2)c(Br)c1 | 5.6* | 0.95*
COc1ccc(N/C=C2\C(=O)c3c(sc(C)c3C)N(C)S2(=O)=O)cc1 | 0.08 | 0.72
COc1cccc(/C=N/Nc2ncnc3scc(-c4ccccc4)c23)c1O | 0.77 | -2.5
Cc1cccc(C(=O)N(C)c2nnc(-c3ccncc3)s2)c1 | 0.6 | -2
Cc1ccc(-n2cnc3sc(C)c(C)c3c2=O)cc1 | 0.97 | 3
COc1ccc(C(=O)N/N=C(\C)CC(=O)Nc2ccc(Cl)cn2)cc1 | 0.25 | 1.2
CCOC(=O)c1ccc(NC(=S)NCc2cccnc2)cc1 | 1.3 | -0.34
O=C(NCCNc1ccnc2cc(Cl)ccc12)c1ccccc1F | 0.52 | 0.04
O=S(=O)(Nc1ccc(C(F)(F)F)cc1)c1cccs1 | 2 | -1.3
O=C(CN1CCCC1)N1CCCC(c2ccc(F)cc2)c2ccc(F)cc21 (stereo unspecified) | 2.1 | 0.96
Cc1cccc2c1cnn2C(=O)Nc1ccccc1Br | 0.39 | 0.84
CCC(C)NC(=O)C1CCCN(C(=O)Nc2ccc(F)cc2)C1 (stereo unspecified) | 2.6 | -0.33
C(=N\n1cnnc1)/c1cccc2ccccc12 | 0.59 | -0.27

Quoted at random: six entries already listed.
structure | KCNQ2 enhance | KCNQ2 enhance baseline
O=C(CN1CCCC1)N1CCCC(c2ccc(F)cc2)c2ccc(F)cc21 (stereo unspecified) | 2.1 | 0.96
COc1ccc(N/C=C2\C(=O)c3c(sc(C)c3C)N(C)S2(=O)=O)cc1 | 0.08 | 0.72
COc1ccc(C(=O)N/N=C(\C)CC(=O)Nc2ccc(Cl)cn2)cc1 | 0.25 | 1.2
Cc1cccc(C(=O)N(C)c2nnc(-c3ccncc3)s2)c1 | 0.6 | -2
Cc1cccc2c1cnn2C(=O)Nc1ccccc1Br | 0.39 | 0.84
O=C(NCCNc1ccnc2cc(Cl)ccc12)c1ccccc1F | 0.52 | 0.04

Next section:
structure | KCNQ2 enhance | KCNQ2 enhance baseline
C/C(=N\NC(=O)C1COc2ccccc2O1)c1ccc(N2CCOCC2)cc1 (stereo unspecified) | 9.2* | 0.99*
CCc1nc(C)cn1S(=O)(=O)c1cc(C)c(OC)cc1C | 1.6 | 0.54
COc1ccc(C(=O)N2CCCC(CCC(=O)N3CCN(c4ccccn4)CC3)C2)cc1 (stereo unspecified) | 0.13 | 0.18
Cc1ccc(OCC(=O)Nc2ccc([N+](=O)[O-])cn2)cc1C | 0.29 | 1.3
Cc1ccc(NC(=O)CC2COc3ccccc3O2)cc1 (stereo unspecified) | 4 | -0.75
c1ccc2sc(NC3=NCN(Cc4ccc5c(c4)OCO5)CN3)nc2c1 | 0.12 | 0.08
CCOc1ccc(CN2CCN(Cc3ccc(C)o3)CC2CCO)cc1 (stereo unspecified) | 0.27 | -0.3
O=C(O)c1cc(-n2nnnc2SCc2ccccc2F)ccc1Cl | 1.3 | -1.5
CCN(CC(=O)NC1CCS(=O)(=O)C1)c1nc(-c2cccnc2)nc2ccccc12 (stereo unspecified) | 0.38 | -0.01
NC(=O)Cc1ccc(Nc2nnc(-c3ccccc3)c3ccccc23)cc1 | 3 | -0.01
CSc1nc2sc3c(c2c2nncn12)CCC3 | 0.06 | 0.29
CC(C)NC(=O)c1ccccc1NC(=O)Cc1ccc(Cl)cc1 | 0.72 | -1.9
C[C@@H](CN=[N+]=[N-])CN1CC[C@H](O)CCC1=O | 0.86 | -0.01
N#Cc1c(N)nc2c(c1-c1ccc3c(c1)OCO3)CCCCCC2 | 0.27 | 0.36
Cc1nc2ccccc2nc(C)c1=NOCC(=O)N(c1ccccc1)C(C)C | 0.26 | -2.2
O=C1NCCCC1C(=O)N/N=C/c1cccc(O)c1 (stereo unspecified) | 1.2 | -1.3
Cn1c(=O)c2c(ncn2Cc2ccc(Cl)cc2)n(C)c1=O | 0.16 | -1.2
COC(=O)CNC(=O)COC(=O)c1cc(SC)ccc1Cl | 4.8 | 0.69
CCNc1ccc(C(=O)OCC(=O)NCc2ccccc2Cl)cc1[N+](=O)[O-] | 0.17 | -1
C/C(Cl)=C\Cn1c(Nc2ccc(C)cc2)nc2c1c(=O)n(C)c(=O)n2C | 0.62 | -0.01
Cc1cc(F)c(F)c(C(=O)NC2CC2)c1Cl | 0.13 | -1
COc1ccc(-c2nnc(SCC(=O)O)n2Cc2ccccc2)cc1 | 1.3 | -0.39
Cc1ccc(NC(=S)NC(=O)c2c(-c3ccccc3Cl)noc2C)cc1 | 0.05 | 0.85
CSc1nnc2c(n1)OC(c1cccn1C)N(C(C)=O)c1ccccc1-2 (stereo unspecified) | 0.06 | 1
Cc1cccc(NC(=O)c2cccc(N3C(=O)C4CCC(C)CC4C3=O)c2)c1C (stereo unspecified) | 0.24 | 0.77
CCOc1nc(-c2ccc(Cl)cc2Cl)ccc1C#N | 1.3 | -0.56
CC(C(=O)N1CCCCC1)n1ncn2cccc2c1=O (stereo unspecified) | 0.51 | -1.5
COc1ccc(-c2nc(CS(=O)CC(=O)NCCC3=CCCCC3)c(C)o2)cc1 (stereo unspecified) | 0.26 | 0.34
O=C(CCC1CCCCC1)Nc1nccs1 | 1.2 | -1.9
O=C(CCCc1ccccc1)Nc1cccc(C(=O)O)c1 | 0.43 | 0.38
O=NN1CCN(c2ccncc2S(=O)(=O)N2CCCCC2)CC1 | 0.79 | -0.54
CC(=O)c1ccc(S(=O)(=O)Nc2ccc(-n3c(C)nc4ccccc4c3=O)cc2)cc1 | 1.4 | -2.3
CCn1c(CNC(=O)C23CC4CC(CC(C4)C2)C3)nnc1SC | 0.64 | -0.07
CCOc1ccccc1C(=O)N1CCN(c2ccc(C(F)(F)F)cn2)CC1 | 1.4 | -1.9
CCN1CCN(CC(O)COc2ccc3c(C)cc(=O)oc3c2)CC1 (stereo unspecified) | 1.2 | 0.21
COc1ccc(C(=O)N[C@H](C(=O)Nc2sccc2C(N)=O)C(C)C)cc1 | 1.3 | -1.9
CCCCOc1ccc(S(=O)(=O)Nc2cccnc2)cc1 | 2.4 | 0.01
COc1ccc(CNc2nc3nc(C)c(Cl)c(=O)n3[nH]2)cc1OC | 0.4 | -0.02
CCOC(=O)c1cc2c(C)n(-c3ccc(OCC)cc3)c(C)c2cc(C(=O)OCC)c1=O | 0.35 | -0.18
O=C(CCOc1ccccc1)Nc1ccnn1C1CCN(Cc2ccccc2)CC1 | 0.68 | 0.2
CCOC(=O)C1CCCN(C(=O)c2cc(Cl)ccc2NC(=O)C2=C(C)OCCS2)C1 (stereo unspecified) | 0.68 | 2.2
Cc1noc(NS(=O)(=O)c2ccc(NC(=O)C34CCC(CC3)C4)cc2)c1C | 0.74 | -0.06
CCOc1cccc(/C(O)=C2/C(=O)C(=O)N(CCOC)C2c2ccc(C)o2)c1 (stereo unspecified) | 1.1 | 1
Cc1nnc(SCC(=O)N2CCCCC2)s1 | 0.67 | -0.5
CN(C)/C=C/C(=O)c1ccc(Cl)s1 | 0.04 | -0.89
Cc1ccccc1-n1ncc2c1CC(C)(C)CC2NC(=O)CCN1Cc2ccccc2C1=O (stereo unspecified) | 1.5 | -0.44
CCCCNC(=O)N(O)C1N(CCCC)C(=O)N(CC(=O)OC)C1(C)C (stereo unspecified) | 0.07 | 0.39
CC(C)OCCCNC(=O)C(NC(=O)c1ccc(Cl)cc1)C(C)C (stereo unspecified) | 1.1 | 0.31
COc1ccc(NC(=S)NNc2ccc(S(=O)(=O)Nc3ccccc3C(=O)O)cc2[N+](=O)[O-])cc1 | 0.36 | -0.63
O=C(Nn1c(-c2ccncc2)nc2ccccc2c1=O)c1ccc(Br)cc1 | 0.2 | -0.95
CCN(CC(=O)Nc1c(F)cccc1F)C(=O)CCOc1ccc(C)cc1 | 0.06 | -1
O=S1(=O)CC(O)C(N2CCCCC2)C1 (stereo unspecified) | 1 | -2.9
CC(=O)c1c(O)cc2n(c1=O)-c1ccc(Cl)cc1C2(C)C | 0.95 | -0.28
CCOC(=O)c1ccccc1NC(=O)/C=C/C(=O)O | 0.34 | -0.26
O=C(Cc1ccccc1)Nc1ccc(N2CCOCC2)cc1 | 0.3 | 0.61
Cc1cc2cc(C(c3nnnn3Cc3ccccc3)N3CCc4ccccc43)c(=O)[nH]c2cc1C (stereo unspecified) | 0.64 | 1.3
C=CCN1C(=O)/C(=C\c2ccc(C)cc2)N=C1SCC(=O)NCCC | 0.98 | -2
CCCC12CN3CC(C)(CN(C1)C3c1cccs1)C2=O (stereo unspecified) | 0.85 | 0.04
COc1ccc2c(c1OC)C(=O)N1c3ccccc3COC21 (stereo unspecified) | 0.92 | 0.35
CCOc1ccccc1NC(=O)c1ccc(C(=O)Nc2ccccc2OCC)nc1 | 1.9 | -0.71
CCOc1ccc(CCNc2ccc3nnc(-c4ccccc4)n3n2)cc1OCC | 0.04 | 0.3

These rows are one share of the data (hit frequency here may not be typical).
